Screening data from PubChem.
Ecoli growth: inhibitors of Escherichia coli growth; OD600, 23 h; active compounds read low; OD600 absorbance (test concentration not listed); 330,000 compounds, 0.21% hits; AID 1053175;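 active = OD600 absorbance below the run mean of sample wells minus 3.6 SD, in any replicate, cut at about 0.56 in these data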;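 also: stock transfer was 300 nL into about 60 µL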
LANA-H2A inh: blocks KSHV LANA binding to histone H2A/H2B | Q9QR71 | cell-free LANA-H2A/H2B peptide, fluorescence polarization | inhibition, % (test concentration not listed) | 320,000 compounds, 0.6% hits | AID 2629; in the data active = inhibition mostly above about 10%, no sharp cut-off; inactive = mostly below about 6.7%;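 also: stock transfer was 7.5 nL into about 10 µL; 0% = median of vehicle wells and 100% = median of positive control wells; one replicate is shown; the record names a cut of 25% in any replicate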
Target sequence (Q9QR71 whole entry, looked up): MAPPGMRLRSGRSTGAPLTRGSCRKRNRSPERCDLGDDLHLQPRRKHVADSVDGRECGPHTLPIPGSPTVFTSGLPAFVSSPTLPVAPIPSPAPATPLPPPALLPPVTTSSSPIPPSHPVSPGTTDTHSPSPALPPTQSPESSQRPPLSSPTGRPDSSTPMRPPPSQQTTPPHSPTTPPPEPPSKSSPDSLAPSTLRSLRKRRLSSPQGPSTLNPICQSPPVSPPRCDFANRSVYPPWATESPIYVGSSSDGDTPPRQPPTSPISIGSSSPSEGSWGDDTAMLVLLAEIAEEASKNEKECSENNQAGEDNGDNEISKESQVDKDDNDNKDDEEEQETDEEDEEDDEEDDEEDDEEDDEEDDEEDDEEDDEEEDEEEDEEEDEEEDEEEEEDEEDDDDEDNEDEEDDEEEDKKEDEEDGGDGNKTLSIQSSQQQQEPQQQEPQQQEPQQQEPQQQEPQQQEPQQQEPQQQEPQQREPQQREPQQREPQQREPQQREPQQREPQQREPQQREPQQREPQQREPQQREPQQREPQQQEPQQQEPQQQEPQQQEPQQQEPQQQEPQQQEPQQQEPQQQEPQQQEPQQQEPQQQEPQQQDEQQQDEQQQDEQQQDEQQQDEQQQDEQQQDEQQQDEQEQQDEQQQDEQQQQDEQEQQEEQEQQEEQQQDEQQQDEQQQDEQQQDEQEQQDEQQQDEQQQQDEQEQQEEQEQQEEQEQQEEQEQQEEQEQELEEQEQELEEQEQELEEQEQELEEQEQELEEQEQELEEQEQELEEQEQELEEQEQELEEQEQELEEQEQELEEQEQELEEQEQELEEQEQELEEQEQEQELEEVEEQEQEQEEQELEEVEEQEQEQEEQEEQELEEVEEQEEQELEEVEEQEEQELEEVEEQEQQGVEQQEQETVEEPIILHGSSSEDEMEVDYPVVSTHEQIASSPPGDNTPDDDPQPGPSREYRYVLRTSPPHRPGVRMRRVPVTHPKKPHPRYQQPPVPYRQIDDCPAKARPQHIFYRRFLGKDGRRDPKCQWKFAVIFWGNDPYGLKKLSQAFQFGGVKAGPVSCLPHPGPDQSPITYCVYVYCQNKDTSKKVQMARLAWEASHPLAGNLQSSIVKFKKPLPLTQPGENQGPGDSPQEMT
Vif TR-FRET: HIV-1 Vif–A3G interaction blockers – biochemical, TR-FRET, GST-Vif 1-94, biotin-A3G peptide, dose response retest, primary screen (AID 1117319); TR-FRET GST-Vif / biotin-A3G peptide binding; higher % means a stronger effect; test concentration not given here; strong numbers were not always called active; 260,000 compounds, 0.57% hits; inhibition, %, or IC50 in µM where a hit was titrated;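 active = above the screen mean plus three standard deviations and confirmed in dose response; inconclusive = results disagree or hit not tested in dose response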;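 also: Vif residues 1-94 fused to GST binding biotinylated APOBEC3G peptide 110-148; 0% = full assay without inhibitor and 100% = GST in place of GST-Vif; retest series ran down from 100 µM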
B2AR ag: human beta-2 adrenergic receptor agonism by FAP | Am2.2-beta2AR cells, FAP receptor internalization, flow cytometry; reference of the scale not given here | P07550 | AID 504454 | response, % (no concentration beside the values) | 340,000 compounds, 0.43% hits;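 active = response above a set limit, near 3 SD of response in nonfluorescent compounds, cut at about 42% in these data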;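 also: stock transfer was 100 nL into about 11 µL; a reference agonist was the positive control; negative values mostly stem from fluorescent compounds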
UCH37 inh: inhibitors of human deubiquitinating enzyme UCH37 | purified proteasome/UCH37, Ub-AMC cleavage fluorescence | Q9Y5K5 | inhibition, % (no concentration beside the values) | 330,000 compounds, 0.33% hits;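 active = mean of two replicates above 20%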;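 also: 0% = compound-free wells with enzyme and 100% = wells lacking proteasome; stock transfer was 100 nL into about 20 µL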
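Material: Human UCH37 enzyme supplied as purified proteasome complex | Schedule: 30 min preincubation with enzyme, 25 min cleavage at room temperature | Detection: AMC fluorescence 355/460 nm | Measure: % inhibition of Ub-AMC cleavage fluorescence | Controls: Wells without proteasome as full block, compound-free enzyme plus substrate as uninhibited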
Bfl-1 A1 inh: inhibitors of the anti-apoptotic protein A1, read as caspase activation | MEF A1-2A-BIM cells, Caspase-Glo 3/7 luminescence, 3 h; percent of clofoctol response, vehicle zero | caspase activation, % (concentration not given with the values) | 330,000 compounds, 0.066% hits | AID 2462;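 active = over half of replicate activation scores above 10%, or exactly half above 10 with the replicate mean above 10; inconclusive = replicate mean below 10 yet half the replicates above 10; inactive = over half of replicates below 10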;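 also: wells of about 30 µL received 50 nL stock; many hits fall short of the cut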
HNF4A DNA FP: change in binding of human HNF4 alpha to DNA | 360,000 compounds, 0.3% hits | HNF4a-FITC DNA binding, fluorescence polarization, 1 h | activity change, % at 10 µM; in the data active = activity change above about 30%, passing the limit was not always enough;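 also: controls were the assay level and a saturating level of protein; the project sought stronger binding though the title names inhibitors; some compounds called inactive have numbers as strong as hits; positive values seem to mean higher polarization but the record does not say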
Active calls of the source: *; ? = inconclusive; / = no result given. Random draw from the library; 2.1% or so of the library scored in one or more.

Below each compound – Ecoli growth, LANA-H2A inh, Vif TR-FRET, B2AR ag, UCH37 inh, Bfl-1 A1 inh, HNF4A DNA FP
COCCn1c(C)cc(C(=O)CSc2nnnn2C2CCCC2)c1C
    0.7, -2.3, 3%, -6, 3.6, 0.3, -1.9
CC(C)(C)OC(=O)NCCCCCO
    0.69, -3.8, /, 0, -0.2, 0.3, -0.3
Cc1ccc(SC/C(O)=C(\C#N)c2nc3ccccc3n2C)cc1
    /, -9.5, 9%, 2, -0.4, -1.3, -1.1
Cc1ccc(S(=O)(=O)N2CCN(C(=O)C3CCN(C(=O)c4ccccc4C)CC3)CC2)cc1C
    0.69, -3.3, /, 1, 4.9, 0.5, 5.1
CC1(C)C(c2ccco2)=[N+]([O-])C2(CCCCC2=O)N1O (stereo not drawn)
    0.66, -3.6, 5%, -2, 1.2, -0.4, -0.1
CN(C)C(CNC(=S)Nc1cccc(Cl)c1)c1ccccc1 (stereo not drawn)
    0.69, -6.6, /, -3, 2.7, 0.3, -6.4
O=C(N/N=C/c1cc([N+](=O)[O-])ccc1O)c1ccc2c(c1)OCCO2
    /, 0.4, /, 14, /, -10, -0.2
O=C(c1cnn2c(C(F)F)cc(-c3ccccc3)nc12)N1CCc2ccccc2C1
    0.67, -5.8, -1%, -19, -28, -0.8, -4.5
COc1ccccc1CCc1nnc(CCC(=O)NCC2CCCO2)o1 (stereo not drawn)
    0.72, 0.2, -1%, -1, 0.9, 1.0, -4.0
N#C/C(=C1\C(=O)Nc2c(Cl)cc(Cl)cc21)c1nnc2n1CCCCC2
    0.71, 3.1, 10%, -2, 1.9, -0.5, 0.2
CC(C)(C)NC(=O)CSc1nnc(NC(=O)CCc2ccccc2)s1
    0.67, -0.6, /, 14, 1.2, 0.4, 6.5
CCC1=C2CC[C@H]3C(=O)N(c4ccccc4)C(=O)[C@H]3[C@H]2[C@@]2(C)C(=NCC(=O)OC)OC(=O)N2C1=O
    /, 2.7, 29%, -2, 0.2, 0.4, 1.3
CC(c1ccccc1C(O)c1ccccc1)N(C)C (stereo not drawn)
    0.65, -0.4, 1%, 14, -0.3, -0.1, -1.0
C=CCSc1nc2ccccc2[nH]1
    0.7, 3.8, -1%, 6, 4.0, 0.5, 3.2
COc1ccccc1C1CC(=O)Oc2cc(O)ccc21 (stereo not drawn)
    0.69, /, /, 2, 3.1, /, -4.5
CN(Cc1ncc[nH]1)Cc1cn(-c2ccccc2)nc1-c1ccc2c(c1)OCO2
    0.7, -2.3, -7%, -6, 3.3, 0.5, 1.7
Cc1ccc(C(C)C)c(OCCN(C)C)c1
    0.71, 1.0, >100µM*, 7, 2.0, 0.5, 1.1
Cc1cccc(N2N=C(C(=O)Nc3ccc(Cl)c(S(=O)(=O)N4CCOCC4)c3)CCC2=O)c1
    0.67, 3.7, -11%, 1, 3.1, 0.3, 0.6
COc1ccc(-n2nc3c(N4CCC(C(=O)NCCc5ccccc5C)CC4)nnc(C)c3c2C)cc1
    0.68, -3.1, /, 10, -60, -1.3, 7.2
Nc1nnc(SCc2ccc(Cl)cc2)s1
    0.68, -1.8, ?, -3, 1.6, 0.2, -1.1
O=[N+]([O-])c1ccc(S(=O)(=O)NN=CCCc2ccccc2)cc1
    0.65, /, 0%, -1, 0.9, /, 0.0
Cc1nc(Cc2ccccc2)sc1CC#N
    0.72, /, -2%, -5, 1.2, /, 0.2
COc1cccc(NC(=O)N2CCOCC2)c1
    0.79, 4.3, -2%, -5, 2.3, -0.5, 3.2
CCN(CC)CCCNc1nc(N)c([N+](=O)[O-])c(N2CCCCCC2)n1
    0.65, -4.1, /, -1, 9.2, -0.8, 2.5
O=C(COC(=O)c1ccc(O)cc1)Nc1cccc(S(=O)(=O)N2CCCCC2)c1
    0.68, 4.6, 13%, 10, 0.0, 0.2, 0.5
Cc1cccc(CN2[C@@H](CC(C)C)COCCS2(=O)=O)c1
    0.8, 2.1, /, -3, 0.8, -1.0, -3.8
O=C(OCC(=O)N1CCCC1=O)c1nc(Cl)ccc1Cl
    0.69, -3.3, 3%, -14, 0.2, 0.9, 0.3
Cc1cccc2cc3c(N)c(C(=O)N4CCc5ccccc54)sc3nc12
    0.77, -7.0, 3%, -245, 4.8, -0.2, 24
CCOC(=O)CCCCCN(Cc1ccccc1)S(=O)(=O)c1ccc([N+](=O)[O-])cc1
    0.68, -1.2, 13%, -4, 6.8, -0.6, -0.8
COc1ccc(/C=C/C(=O)Nc2ccc(S(=O)(=O)Nc3onc(C)c3C)cc2)cc1OC
    0.65, 1.1, 3%, 1, 4.5, -1.2, 3.8
COC(=O)c1c(NC(=O)COC(=O)CCNS(=O)(=O)c2ccc(NC(C)=O)cc2)sc(C)c1C
    0.67, 1.2, 2%, 15, -1.6, -0.5, 0.6
COC(=O)c1c(C)cccc1C1CN=NC12Cc1ccccc1C2=O (stereo not drawn)
    /, /, 5%, -12, /, /, 4.2
Oc1ccc(C=NN=Cc2ccco2)c(O)c1
    /, /, 0%, -2, /, /, 1.7
COCCNC(=O)c1ccc(N2CC3CC(C2)c2cccc(=O)n2C3)c(NC(=O)c2cc(OC)cc(OC)c2)c1 (stereo not drawn)
    0.69, 1.7, -9%, 1, 2.1, -0.7, 1.9
CCN(CC)Cc1cc(C(=O)O)c(C)o1
    0.68, 8.9, 2%, 5, 3.5, ?, -0.9
CCN1C(=O)[C@H]2[C@@H](c3ccc(C)cc3)N3C(=O)N(c4ccc(C(F)(F)F)cc4)C(=O)[C@@]3(CC(C)C)[C@H]2C1=O
    /, 0.3, /, 0, 1.0, 0.8, -2.4
CC(=O)c1ccc(Nc2cc(C)nc3nc(C)nn23)cc1
    0.75, 0.6, -3%, -14, 9.0, -0.6, 3.0
CCCOc1ccc(-c2c(C(=O)N/N=C(\C)c3ccco3)nnn2-c2nonc2N)cc1
    /, 0.3, /, -1, /, 0.2, 1.1
CC(C)(O)C#Cc1ccc(C(=O)N2CCC(C(N)=O)(N3CCCCC3)CC2)cc1
    0.72, -2.7, 19%, -5, 1.2, -0.9, 1.8
Cc1cc(C(=O)NCc2cccs2)ccc1[N+](=O)[O-]
    0.66, -3.5, /, -3, 3.0, 0.2, 0.9
N#Cc1c(-c2ccc(C(F)(F)F)cc2)cc(-c2ccccc2)[nH]c1=S
    0.64, -1.7, -10%, 1, 7.3, -0.3, -3.0
C=CCNC(=S)NN=C1CCCCCCC1
    0.69, 4.2, /, 2, 4.6, 0.1, -0.7
O=C(CSc1ccccn1)Nc1ccc2c(c1)OCO2
    0.64, -5.7, 6%, 6, 3.7, -0.1, 4.7
O=C(CC1C(=O)NCCN1Cc1ccc(-c2ccccc2)cc1)NCC1CCOCC1 (stereo not drawn)
    0.74, 4.4, 0%, 1, 2.4, 0.1, 0.1
CCN(CC)c1ccc(N=C2C=CC(=O)C=C2NC(C)=O)cc1
    0.67, /, /, /, 1.3, /, -5.3
Cc1cc(F)ccc1NC(=S)NC1CCCC1
    0.72, 3.2, /, -6, -1.3, -0.1, -1.0
CCOC(=O)c1cnn(CCOC(=O)c2ccccc2F)c1NC(=O)c1ccccc1F
    0.67, 13, -3%, 3, -0.7, 0.5, -22
COc1ccc(CNC(=S)Nc2ccccc2C)cc1
    0.71, 1.0, 0%, 2, 1.7, 0.8, -2.7
CCOc1ncccc1C(=O)Nc1ccc(F)cc1
    0.71, 4.9, -4%, 0, 2.3, 0.6, 4.0
CCOC(=O)c1ccc(NCC(O)COc2ccccc2)cc1 (stereo not drawn)
    0.68, 6.8, 22%, 2, -1.1, 1.3, 4.0
C(=N\Nc1nc2ccccc2[nH]1)/c1cccc2cccnc12
    /, 4.1, -4%, 7, /, -2.2, 0.1
CC(CC#CCN1CCOCC1)OCCC#N (stereo not drawn)
    0.71, 1.2, -12%, 4, 3.8, 0.9, 1.0
Cc1c(Cl)cnc(NC(=O)COC(=O)C2CC2)c1Cl
    0.66, -3.3, /, 3, 3.1, -0.1, -2.5
CC(O)CNc1nc2sc3c(c2c(=O)n1CCc1ccccc1)CCCCC3 (stereo not drawn)
    0.72, 6.8, /, 5, 3.2, 0.5, 0.4
CCCC(=O)Nc1nn(C)c2nc3ccc(C)cc3cc12
    0.66, -1.0, -10%, 2, -45, 0.3, -0.4
CCOc1ccc(-c2c(C(=O)N/N=C/c3cccc(Br)c3)nnn2-c2nonc2N)cc1
    /, 20*, /, -6, /, 0.0, -2.7
COc1ccc(CC(=O)OCn2nnc3ccccc3c2=O)cc1
    0.69, -4.1, 70%, 3, 3.4, -0.5, 1.9
COC(=O)CSc1nc(C)c2ccc(OC)cc2n1
    0.65, 0.0, -11%, 3, -228, 0.3, 1.1
Cn1cc2cc([N+](=O)[O-])ccc2n1
    0.68, -2.4, 7%, 0, 5.2, 1.0, 2.6
O=c1cc(CN2CCN(c3cccc(C(F)(F)F)c3)CC2)nc2sccn12
    0.71, -1.1, /, /, 1.8, -0.9, /

Later entries:
Below each compound – Ecoli growth, LANA-H2A inh, Vif TR-FRET, B2AR ag, UCH37 inh, Bfl-1 A1 inh, HNF4A DNA FP
COc1ccc(S(=O)(=O)N2CC(=O)Nc3ccccc32)cc1C
    0.66, -1.5, /, 6, 0.9, 1.6, -0.5
Cc1ccc(NC(=O)CN(C)C(=O)Cc2ccc3c(c2)CCC3)cc1
    0.69, /, -2%, 1, 3.1, /, 1.4
Nc1cccc(/C=C/C(=O)O)c1
    0.68, 0.4, -7%, 2, -1.3, -0.4, -2.5
Cc1ccc(S(=O)(=O)Oc2ccc(/C=N/N=C3/NC(=O)C(CC(=O)O)S3)cc2)cc1[N+](=O)[O-] (stereo not drawn)
    /, 4.0, 11%, -1, /, -0.6, 0.6
CCCN(CC(=O)Nc1ccccc1C)C(=O)Cc1coc2cc(C)ccc12
    0.73, -2.8, /, 0, -0.3, -0.4, 4.9
CCCCN(C(=O)C1CCCC1)c1c(N)n(CC(C)C)c(=O)[nH]c1=O
    0.68, -7.3, /, 1, 1.0, 0.2, 2.4
CC(=O)/C=C/c1ccccc1O
    0.63, 2.5, /, 0, 2.8, -0.7, 1.5
Cc1cccc(C)c1NC(=O)CSc1nc(N2CCOCC2)nc(N2CCOCC2)n1
    0.67, 1.8, /, -7, 4.3, 1.3, 3.5
c1ccc(CNc2ncnc3[nH]ncc23)cc1
    0.69, /, 0%, -3, 1.5, /, -0.1
COC(=O)c1c(N2C(=O)[C@H]3[C@@H](C2=O)[C@]2(C(=O)Nc4ccccc42)N2CCC[C@@H]32)sc(C)c1C
    0.7, 3.4, 16%, /, 2.4, -0.8, /
C/C(=N\NC(=S)NCCc1ccccc1)c1cccs1
    /, 2.1, /, -10, /, -0.7, -35
COc1cc(NC(=O)c2c(F)c(F)c(F)c(F)c2F)c(OC)cc1Cl
    0.65, -2.7, 5%, 16, 4.3, -0.1, -4.9
COc1ccc(C)cc1NC(=O)c1ccccc1N(C)S(=O)(=O)c1ccccc1
    0.62, 2.0, /, 16, 2.7, -0.1, 3.0
CCC1Sc2ccc(S(=O)(=O)CCC(=O)NC3CCCCCC3)cc2NC1=O (stereo not drawn)
    0.63, 1.4, /, 5, 1.5, 1.8, 4.7
N#Cc1ccccc1S(=O)(=O)Nc1ccc2c(c1)OCCO2
    0.62, 1.0, -6%, 0, 6.3, 0.0, -0.4
Cc1ccc(/C=N/n2cnc3sc(C)c(C)c3c2=O)o1
    /, -7.6, 3%, 2, /, -0.4, -1.1
COC(=O)C1=C(C)N(CCCC(=O)O)C(=O)NC1c1ccc(C(F)(F)F)cc1 (stereo not drawn)
    0.67, 1.9, /, -3, 3.2, 0.0, 0.7
NC(=O)NC(=O)CN1c2cccc3cccc(c23)S1(=O)=O
    0.7, -2.4, /, 11, -63, 0.9, -1.7
